Mtb betalactam: beta-lactam sensitization of Mtb H37Rv; AID 434955; M. tuberculosis H37Rv growth with meropenem, percent inhibition; hits of this screen are not shown here; inhibition, % at 25 µM; hit rate 0.27% among 330,000;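 active = about 74% or more and at least 40 points above the plate without the antibiotic, then above 30% in a dose series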;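 note: growth measured after seven days incubation then overnight dye step; 0% = bacteria only wells and 100% = bacteria with antibiotic; twin plates without the antibiotic show which effects depend on it; some results filed as inactive read as strong as hits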
Mtb H37Rv: M. tuberculosis H37Rv growth inhibitors, H37Rv strain (AID 1626) | M. tuberculosis H37Rv growth inhibition; higher % means a stronger effect | one-dose inhibition, % at 10 µM; IC50 in µM for titrated hits | hit rate 0.95% among 220,000;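 active = confirmed in a dose series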;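 note: bacteria incubated seven days before Alamar blue readout; 0% = bacteria only wells and 100% = bacteria with antibiotic wells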
Arbovirus inh: antivirals against arbovirus infection; arbovirus infection cell-based antiviral screen; inhibition, % at 10 µM; hit rate 0.37% among 200,000; AID 1251;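 active = inhibition from about 30%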;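 note: bluetongue infection of BSR cells; cell survival read as ATP light after 72 h; 0% = infected wells without compound and 100% = uninfected wells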
YopH inh: blocks Yersinia enterocolitica YopH tyrosine phosphatase. fluorescence Ex485/Em525. inhibition, %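 (about 10 µM by stock and volumes)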. hit rate 0.16% among 140,000;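 active = inhibition of 50% or more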;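 note: controls were vehicle for no effect and minimum signal wells for full effect; inactives centre near -20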
RecA intein inh: inhibitors of M. tuberculosis RecA intein splicing | cell-free RecA intein splicing, fluorescence | inhibition, %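 (about 9 µM by stock and volumes)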 | P9WHJ3 | hit rate 0.75% among 290,000; in the data active = inhibition above about 30%;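 note: 0% = vehicle wells and 100% = reference inhibitor control wells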
Target sequence (P9WHJ3 whole entry, looked up): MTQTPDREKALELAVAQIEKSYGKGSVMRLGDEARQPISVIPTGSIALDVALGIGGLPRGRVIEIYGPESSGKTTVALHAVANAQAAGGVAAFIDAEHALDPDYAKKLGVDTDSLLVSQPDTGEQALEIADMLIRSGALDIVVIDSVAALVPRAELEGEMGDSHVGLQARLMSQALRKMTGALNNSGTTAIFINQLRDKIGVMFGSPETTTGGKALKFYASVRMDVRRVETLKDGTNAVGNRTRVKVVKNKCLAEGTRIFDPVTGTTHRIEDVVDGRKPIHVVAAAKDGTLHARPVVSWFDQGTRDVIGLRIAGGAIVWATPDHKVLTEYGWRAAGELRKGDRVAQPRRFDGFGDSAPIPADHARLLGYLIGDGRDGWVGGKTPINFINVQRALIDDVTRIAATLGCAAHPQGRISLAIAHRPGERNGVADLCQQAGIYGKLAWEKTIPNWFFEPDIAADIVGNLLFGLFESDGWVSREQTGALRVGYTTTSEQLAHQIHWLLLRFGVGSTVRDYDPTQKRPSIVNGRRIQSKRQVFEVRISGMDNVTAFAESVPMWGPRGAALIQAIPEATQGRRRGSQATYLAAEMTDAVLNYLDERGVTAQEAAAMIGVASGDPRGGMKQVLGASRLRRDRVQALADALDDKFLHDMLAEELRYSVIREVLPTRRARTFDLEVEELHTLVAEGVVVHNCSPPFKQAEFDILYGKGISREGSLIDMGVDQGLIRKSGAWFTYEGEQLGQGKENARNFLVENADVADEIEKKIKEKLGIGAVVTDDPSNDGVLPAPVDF
Arbovirus inh repeat: also measured in Arbovirus inh; calls as there; inhibition, %; measured here: 10K subset replicate screen; many hits read low in the repeat;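 first of two repeat runs on a subset; 0% = infected and 100% = uninfected wells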
Numbers without * were called inactive; / = not tested or not shown.

A first look:
SMILES	Mtb betalactam	Mtb H37Rv	Arbovirus inh	YopH inh	RecA intein inh	others
COCc1nnc(NC(=O)CCc2ccccc2)s1	-0.3	-7.6%	4.0	-13.6	0.7
O=C(Nc1ccccc1N1CCCCC1)c1cccs1	84.7	16.1%	5.1	-4.8	12.9

The listing, from the first entry:
SMILES	Mtb betalactam	Mtb H37Rv	Arbovirus inh	YopH inh	RecA intein inh	others
COCc1nnc(NC(=O)CCc2ccccc2)s1	-0.3	-7.6%	4.0	-13.6	0.7
O=C(Nc1ccccc1N1CCCCC1)c1cccs1	84.7	16.1%	5.1	-4.8	12.9
CC(C)(C)c1ccc(NC(=O)c2ccc(=O)[nH]n2)cc1	1.8	/	/	/	2.0
O=C(O)c1csc(-c2cccs2)n1	-0.4	3.7%	23.8	/	-1.2
CCCCCn1c(SCC(=O)OC)nc2c1c(=O)[nH]c(=O)n2C	0.7	-4.1%	-0.8	-25.5	1.0	Arbovirus inh repeat=3.2
CCCCC(c1nnnn1CCOC)N1CCN(Cc2ccccc2)CC1 (centres undefined)	-7.8	4.9%	-0.6	0.1	8.9
COc1cccc(C2CC(c3ccccc3)Nc3nc(N)nn32)c1 (centres undefined)	1.4	-1.4%	1.0	/	-0.5	Arbovirus inh repeat=1.6
O=c1cc(-c2ccccc2F)oc2ccccc12	-3.6	-6.3%	-4.7	-21.8	-2.2
Cc1[nH]n(-c2ccccc2)c(=O)c1N=Nc1cccc(C(=O)O)c1	50.4	/	/	/	3.5
Cc1ccc(C)c(NC(=O)c2cc(=O)c3ccccc3o2)c1	3.0	-7.8%	7.7	-28.1	0.7
CCOC(=O)N1CCN(C(=O)CSc2ccc(-c3cccnc3)nn2)CC1	1.0	-7.7%	-4.1	/	-4.4
Nc1ccccc1SCc1cn2cccnc2n1	-2.6	-11.8%	3.8	-46.9	/	Arbovirus inh repeat=-5.1
O=C(NCCc1ccccc1)c1cc(-c2ccncc2)nc2ccc(S(=O)(=O)N3CCOCC3)cc12	1.6	/	/	/	-1.5
Cc1ccc(C(=O)Nc2ccc3c(c2)OCO3)cc1	3.5	0.2%	-22.5	1.2	28.9
COCCN(C(=S)Nc1ccc(C)cc1)C(C)c1cccnc1 (centres undefined)	-0.7	-5.8%	3.5	/	-1.1
Cc1ccc(NC(=S)c2ccccc2)cc1	-1.2	5.0%	-6.5	-51.7	0.5
CCOc1ccccc1C(=O)NCCc1cnc[nH]1	0.9	/	/	/	-1.9
Cc1c(Br)c([N+](=O)[O-])nn1CC(=O)Nc1ccccn1	-6.4	2.1%	-0.3	/	0.5
CC(=O)NCCc1nc2cc(NC(=O)c3ccccc3Cl)ccc2n1C	3.5	/	/	/	0.8
O=C(NCc1ccc(F)cc1)C1Cc2ccccc2CN1C(=O)c1ccco1 (centres undefined)	-1.3	1.6%	15.5	/	2.7
COc1ccc(-c2oc3cccnc3c2/C=C/c2ccc(OC)c(OC)c2)cc1	12.5	/	/	/	-18.9
Cc1ccc(SCc2ccc(C(=O)Nc3ccccc3Br)cc2)cc1	97.1	39.3%	11.3	-29.0	2.4
Cc1cccc(Sc2c([N+](=O)[O-])ncn2C)n1	-17.1	-1.1%	6.1	-37.6	4.6
CC(C)CCN1CCN(Cc2cccn2-c2nccs2)CC1CCO (centres undefined)	-0.4	-1.2%	-4.2	/	0.4
CC(C)C[C@H](NC(=O)OC(C)(C)C)C(=O)N[C@@H](CO)[C@H](O)[C@@H]1C[C@@H]1C(=O)NC1CC1	-4.8	/	/	/	-3.2
Cc1c(C)c2c(OCC(=O)NCC(=O)NCC(=O)O)cc3c(c2oc1=O)CCC(C)(C)O3	9.5	/	/	/	-0.1
CN(C)Cc1nc2ccccc2c(=O)n1Cc1nc(C(C)(C)C)cs1	46.8	-2.0%	-0.1	3.1	/
O=C(ONC1=NCCCCC1)c1cccc([N+](=O)[O-])c1	3.6	6.5%	-2.6	/	3.3
Cn1ccsc1=NC(=O)c1ccc([N+](=O)[O-])o1	99.9	/	/	/	-7.2
O=C(CSc1ccsc1[N+](=O)[O-])NCCc1ccc(Cl)cc1	-1.9	3.4%	-2.4	-31.1	-5.6
Cc1ccc(S(=O)(=O)Nc2ccccc2CNc2ncc(Br)cc2Br)cc1	1.8	-1.5%	-12.0	-2.0	2.1
O=C(Nc1ccc2nn(-c3ccccc3)nc2c1)c1ccc(Br)o1	3.7	-2.5%	0.1	-32.2	4.0
Cc1ccc2[nH]c(=O)c(CN(CCCN3CCOCC3)C(=O)Nc3ccc(Cl)cc3)cc2c1	5.1	4.0%	3.8	/	-1.6
CCC1(C)C2(C#N)C(N)=NC(OC)(OC)C12C#N (centres undefined)	-9.6	1.1%	0.1	-8.4	5.8	Arbovirus inh repeat=6.6
Cn1c(C(=O)OC(C(=O)NC2CCCC2)c2ccncc2)cc2sccc21 (centres undefined)	-2.2	2.1%	-9.5	-5.7	-1.1
CCOC(=O)CNc1ccc(OC(F)(F)F)cc1	4.0	-6.4%	/	/	0.7
Cc1ccc(C#CC[N+](C)(C)CC#Cc2ccccc2)cc1	-5.0	10.2%	-2.9	/	0.6
COc1ccc(-n2c(O)c(/C=C3\C=Nc4ccc(Br)cc43)c(=O)[nH]c2=O)cc1	9.0	/	/	/	4.4
CCS(=O)(=O)N1Cc2ccccc2CC1C(=O)Nc1nc2ccccc2[nH]1 (centres undefined)	12.4	0.3%	-2.3	-4.6	1.4
COc1ccccc1-n1nc(C(=O)Nc2ccc3c(c2)OCO3)c2ccccc2c1=O	5.4	8.7%	-2.7	-31.1	-0.6
CCCCCCC1C(C#N)=C(N)OC2=C1C(=O)CC(C)(C)C2 (centres undefined)	-3.7	10.6%	3.8	-4.6	0.0	Arbovirus inh repeat=4.1
Cc1ccc(/C=N/NC(=O)c2ccc3c(c2)OCCO3)s1	6.0	-1.5%	/	/	0.3
CC12CN3CCN(CC(C3)/C1=N\N=C1/C3CN4CCN(C3)CC1(C)C4)C2	-5.3	1.2%	2.6	-20.1	-0.2
CCOC(=O)Cc1csc(NC(=O)CSc2nnnn2-c2ccc(C)c(C)c2)n1	-8.6	-4.5%	-0.7	-15.4	1.2
CCCC(=O)OCCNc1cc(SCc2ccco2)c2nonc2c1[N+](=O)[O-]	100.1	4.2µM*	-44.4	36.9	79.1*
N#CNC(=Nc1cccc(F)c1)SCc1ccccc1F	2.7	5.1%	2.2	-36.3	2.3
Cc1ccccc1Nc1nc(N)nc(COC(=O)CCS(=O)(=O)c2ccccc2)n1	10.3	-10.3%	-0.6	-15.8	1.3
O=C(NCc1ccco1)C1CCCN(S(=O)(=O)c2cnc[nH]2)C1 (centres undefined)	-2.9	-5.4%	5.4	-55.5	-5.8
CC(OC(=O)c1cccc(S(=O)(=O)N2CCCC2)c1)C(=O)NC1CCCCC1C (centres undefined)	-5.0	/	/	/	0.1
CCc1ccc(-n2c(C)n[nH]c2=S)cc1	-4.0	4.5%	-5.4	/	-1.0
CCOc1ccc2sc(NS(=O)(=O)c3ccc(N)cc3)nc2c1	-0.2	-0.1%	/	/	-2.7
O=S(=O)(Cc1ccc(Cl)cc1)N1CCN(Cc2ccccc2)CC1	-5.5	-6.6%	-6.6	11.6	-0.9
CCc1nnc(NC(=O)CSCc2cc(=O)n3nc(C(C)C)sc3n2)s1	-9.0	/	/	/	5.8
Cc1ccc(C(=O)NC(O)C(Cl)Cl)cc1 (centres undefined)	-7.1	-2.6%	-0.4	-34.1	1.3
O=C(Nc1ccccc1)c1cccc(-c2nnc(-c3ccccc3)o2)c1	12.3	-5.2%	-5.6	35.9	-0.2
CN(C)S(=O)(=O)Nc1ccccc1F	6.0	-4.9%	-2.8	/	0.8
COc1ccc(CCNC(=O)c2ccc3c(=O)n(Cc4ccco4)c(=S)[nH]c3c2)cc1OC	40.4	0.7%	-2.9	-5.8	3.0
COc1ccc(N2CCN(c3oc(COc4ccc(Cl)cc4)nc3C#N)CC2)cc1	92.5	-5.1%	3.5	-37.9	1.2
OCC[C@@H]1C[C@@H](O)[C@H](O)[C@@]2(CCCc3ccccc3O2)O1	21.8	/	/	/	-3.8
CC(=O)c1cccc(NC(=S)N2CCN(c3ccccn3)CC2)c1	1.2	/	/	/	-1.8

Further compounds
SMILES	Mtb betalactam	Mtb H37Rv	Arbovirus inh	YopH inh	RecA intein inh	others
C=CCN(C(=O)Cn1ncc2c1-c1cc(C)ccc1OC2)c1ccccc1	-0.7	4.0%	-7.7	-18.2	1.2
Cc1cc(Cl)ccc1NC(=S)NCc1ccccc1	-1.8	-5.7%	6.2	-11.2	2.4
O=C1c2ccccc2C(=O)C1c1ccncc1	-1.6	2.3%	-4.6	-52.2	1.6	Arbovirus inh repeat=-1.3
CCC1(CC)NC(=S)N(Nc2ccccc2)C1=O	0.3	-12.7%	8.0	-5.8	0.4
Fc1ccccc1COc1ccccc1/C=N/Nc1nc(N2CCCC2)nc(N2CCCC2)n1	2.6	11.4%	-10.7	-24.3	-0.2
CC(=O)c1ccc(OCC(=O)Nc2ccccc2N2CCCC2)cc1	-6.3	/	/	/	1.3
CCCn1c(=O)[nH]c(=O)c2c1nc(-c1ccc3c(c1)OCCO3)n2CCN1CCOCC1	-4.5	-1.9%	-0.7	-12.0	-0.3
CC(C)(C)NC(=O)NC(=O)COC(=O)CNS(=O)(=O)c1ccc(Br)cc1Cl	-2.8	/	-1.9	/	-1.0
O=C(NC1CCSC1=O)c1cccc(Cl)c1 (centres undefined)	1.1	-0.2%	3.5	/	4.5
COc1ccc(NC(=O)CCNC(=O)c2ccco2)cc1OC	-6.0	/	/	/	-3.6
COc1ccc([N+](=O)[O-])cc1NCC(=O)c1ccc(C)cc1	-0.5	/	/	/	-1.3
Cc1cc(C(=O)N2CCc3ccccc32)c2ccccc2n1	-16.5	6.7%	-3.0	-44.2	0.5

Ordered by heavy-atom count (descending): some entries from above.
SMILES	Mtb betalactam	Mtb H37Rv	Arbovirus inh	YopH inh	RecA intein inh	others
C=CCN(C(=O)Cn1ncc2c1-c1cc(C)ccc1OC2)c1ccccc1	-0.7	4.0%	-7.7	-18.2	1.2
CC(=O)c1ccc(OCC(=O)Nc2ccccc2N2CCCC2)cc1	-6.3	/	/	/	1.3
Cc1cc(C(=O)N2CCc3ccccc32)c2ccccc2n1	-16.5	6.7%	-3.0	-44.2	0.5
Cc1cc(Cl)ccc1NC(=S)NCc1ccccc1	-1.8	-5.7%	6.2	-11.2	2.4
CCC1(CC)NC(=S)N(Nc2ccccc2)C1=O	0.3	-12.7%	8.0	-5.8	0.4
O=C1c2ccccc2C(=O)C1c1ccncc1	-1.6	2.3%	-4.6	-52.2	1.6	Arbovirus inh repeat=-1.3

(cont.)
SMILES	Mtb betalactam	Mtb H37Rv	Arbovirus inh	YopH inh	RecA intein inh	others
CCn1nnnc1SCC(=O)c1cccc(OC)c1	-1.1	1.1%	-2.9	-10.9	-6.2
COc1ccc(N(C(=O)c2ccccc2OC)C2C=CS(=O)(=O)C2)c(OC)c1 (centres undefined)	-5.2	-2.7%	0.7	-18.4	-0.8
Cc1nc2ccc(NS(=O)(=O)c3ccc(F)cc3)cc2s1	-0.4	0.1%	16.2	/	1.8
CC(C)(C)OC(=O)N1CCC[C@H]1c1nnc(SCC(=O)Nc2ccc(Br)cc2)o1	3.4	-5.2%	/	/	1.7
O=C(CCSc1nnc2ccccn12)Nc1ccc(F)cc1	-14.8	-5.3%	-2.5	-14.1	5.0
Cc1cc(C(=O)COC(=O)c2ccc3c(c2)NC(=O)CS3)c(C)n1CCc1ccc(Cl)cc1	-7.3	5.3%	-11.3	/	2.1
Cc1cc(CNC(=O)c2ccc3nc(Cc4ccccc4F)oc3c2)nn1C	-5.5	/	/	/	-1.8
CCCNC(=O)N(CCOC)CC1CCCN(C2Cc3ccccc3C2)C1 (centres undefined)	0.3	/	/	/	1.6
Oc1ccc(Nc2nc(NCC3CCCO3)c3ccccc3n2)cc1 (centres undefined)	/	5.5%	40.8*	-42.8	-6.3
O=C(c1ccc(F)cc1)C1CCN(S(=O)(=O)c2ccccc2)CC1	-5.5	-8.2%	-6.4	/	-0.2
COc1cc(/C=N/NC(=O)c2nc3ccccn3c2C)cc(OC)c1O	3.0	-3.0%	-3.0	/	-5.1

3 compounds picked at random from those above:
SMILES	Mtb betalactam	Mtb H37Rv	Arbovirus inh	YopH inh	RecA intein inh	others
Cc1cc(C(=O)COC(=O)c2ccc3c(c2)NC(=O)CS3)c(C)n1CCc1ccc(Cl)cc1	-7.3	5.3%	-11.3	/	2.1
Cc1cc(CNC(=O)c2ccc3nc(Cc4ccccc4F)oc3c2)nn1C	-5.5	/	/	/	-1.8
COc1cc(/C=N/NC(=O)c2nc3ccccn3c2C)cc(OC)c1O	3.0	-3.0%	-3.0	/	-5.1

This is a subset; rates above refer to the full screens.
